Screening data as filed in PubChem.
NPYLR7 agonist = activates Aedes aegypti NPYLR7 receptor; HEK293T NPYLR7/Galpha15, GCaMP6s calcium fluorescence; activation, % at 10 µM; 0.15% of 270,000 active; AID 1259423; in the data active = activation above about 40%;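 also: 0% = vehicle and 100% = reference agonist at the receptor; some compounds past the cut are filed as inactive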
NPYLR7 agonist max-min = further read-out of NPYLR7 agonist, marked with its call; activation, %; measured here: Max-Min RFU normalised activation; some inactives read as strong as hits;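 span of the calcium signal over five minutes; 0% = vehicle and 100% = native peptide agonist; compound fluorescence can raise it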
* = called active by the depositor; & = joins results of further samples. Not all compounds are listed (hit frequency here may not be typical).

SMILES | NPYLR7 agonist | NPYLR7 agonist max-min
O=C1C(c2c(-c3ccccc3)[nH]n(-c3ccccc3)c2=O)=C(N2CCOCC2)C(=O)N1c1ccccc1F | -8.0&-5.2 | -1.8&-3.1
CC1(C)C[C@H]2C[C@@H](Oc3ccccn3)[C@H](N3CCN(C(=O)c4ccco4)CC3)[C@]2(O)CO1 | 0.3 | -1.2
COC(=O)c1ccccc1NC(=O)c1cccc(N2CCCC2=O)c1 | 3.1 | 0.6
Cn1ncc2c(N[C@H]3COC[C@@H]3N3CCCCC3)nc(-c3cccnc3)nc21 | 3.8 | 1.3
Cc1nn2c(C(F)(F)F)ccnc2c1C=O | 2.3 | 4.5
Cc1nc(Nc2ccc(NC(=O)c3ccc(Br)o3)cc2)cc(-n2cccn2)n1 | -4.9 | -7.9
FC(F)(F)c1ccnc(NC(c2ccc3c(c2)OCCO3)C2CC2)n1 (stereo not given) | 7.7 | 7.0
COc1ccc(CCCC(=O)N2CCCC3(CN(C)C(=O)O3)C2)cc1 (stereo not given) | 4.1 | 1.4
Cc1ccc(C)c(NC(=O)OCCNC(=O)C2C(C=C(Cl)Cl)C2(C)C)c1 (stereo not given) | -2.1 | -2.8
Cc1cc(C(=O)N2CCN(c3ccc(NC(=O)c4ccc(F)cc4)cn3)CC2)c(C)o1 | 3.2 | -1.0
CCc1nc2ccc(C(=O)N3CCN(C(C)=O)CC3)cn2c1N(C)Cc1nccn1C | -6.1 | -9.4
O=C(CCN(CC1CCCO1)CC1CCCO1)Nc1cccc(F)c1 (stereo not given) | 10.5 | -13.0
CC(=O)/C(=N/Nc1ccccc1[N+](=O)[O-])Oc1ccc(Br)cc1 | 10.8 | 4.6
CCN(CC)CC(=O)N1C[C@@H]2CN(C(=O)C3CC3)C[C@]2(C(=O)O)C1 | 6.3 | 6.3
CN(CC(=O)Nc1cc(Cl)c(N)c(Cl)c1)S(C)(=O)=O | 5.2 | 4.9
Cc1noc(-c2ccco2)c1C(=O)N[C@H]1CCC[C@@H]1OCc1ccccc1 | -0.4 | 1.8
Cc1ccc(SCc2cc(=O)[nH]c(N=C(N)Nc3ccc(C)c(C)c3)n2)cc1 | 3.3 | 5.1
CCC1CCC2(CC1)NC(=O)N(CC(=O)Nc1ccc(N3CCCC3=O)cc1)C2=O (stereo not given) | 8.9 | 10.5
CC(c1cccc(-c2cncc(C(=O)O)c2)c1)N(C)C (stereo not given) | 1.5 | -2.5
Cc1cccc(Cn2c(=O)c3c(nc4n3CC(C)CN4C3CCCCC3)n(C)c2=O)c1 (stereo not given) | 2.7 | 8.6
CN(CC(=O)NC1(c2ccccc2)CCC1)c1ccc(Cl)cn1 | 0.2 | -0.8
O=C(NCC1CCCO1)c1cc2nc(-c3ccc(F)cc3)cc(C(F)(F)F)n2n1 (stereo not given) | -16.1 | -23.0
C=C(C)CN(CC)C(=O)c1ccc(F)c(F)c1 | 19.3 | 10.4
C=CCOC(=O)C1C(C)=NC2=C(C(=O)CCC2)C1c1cccc(F)c1 (stereo not given) | -2.5 | -6.1
Cc1ccc(C(=O)N2CCN(C(=O)c3cc(Cl)ccc3O)CC2)o1 | -0.6 | -4.0
Next part:
SMILES | NPYLR7 agonist | NPYLR7 agonist max-min
CCN(CC)C1CCN(C(=O)CN2Cc3cc(Cl)ccc3OC(C)C2)C1 (stereo not given) | 9.6 | 1.3
CNc1nc(-c2cccnc2OC)nc2c1CCC2 | 1.2 | 0.5
Cc1nc(SCc2cccc(C(=O)N3CCCC3)c2)nc(N(C)Cc2ccccc2)c1C | 14.6 | 25.9
CCc1nnc(-c2cc3ccccc3n2Cc2ccc(C(=O)OC)cc2)o1 | -2.9 | -2.8
CCCc1nc(N(C)CCN2CCCCC2=O)c2cnn(C)c2n1 | 2.0 | -2.6
Cc1ccc(NC(=O)COc2ccnc3cc(F)c(F)cc23)cc1C | 5.4 | 3.4
Cc1ccc(CN2CCN(Cc3cnc(N4CCCC4)s3)CC2=O)cc1 | -1.9 | -7.0
Cc1nn(C)c(Cl)c1S(=O)(=O)N1CCC2(CCNCC2)C1 | 14.7 | 9.1
COc1ccc(-c2[nH]n3c(=O)cc(C)nc3c2C)cc1OC | -0.2 | 24.7
CSCCC1NC(=O)N(CC(=O)N(C)C2CCCCC2)C1=O (stereo not given) | -0.5 | 20.0
O=C(c1ccc(Cl)c(Cl)c1)N1CCN(C(c2ccccc2)c2ccc(Cl)cc2)CC1 (stereo not given) | -2.9 | 5.7
CC(Sc1cc(F)ccc1F)C(=O)NC1CC1 (stereo not given) | -2.4 | -2.8
O=S(=O)(Nc1ccc(-c2ccc3nnc(-c4cccs4)n3n2)cc1)c1ccccc1 | -18.3 | -18.5
Cc1ccc(Cn2c(=O)c(C(=O)NC3CC3)nn(-c3cccc(Cl)c3)c2=O)cc1 | -1.0 | 0.1
Cn1c(CO)nc2cc(N=Cc3ccc(O)cc3O)ccc21 | -0.1 | -3.0
CC(C)n1ncc2c(C(=O)Nc3ccccc3)cc(-c3ccco3)nc21 | 3.0 | 9.2
O=C1OC(/C=C/c2ccccc2)=NC/1=C/c1ccccc1 | -1.7 | -5.1
CC(C)c1nc(CN(C)C(=O)CN(C)C2CCS(=O)(=O)C2)cs1 (stereo not given) | 17.8&2.7 | 5.4&2.8
NC(=O)NC(=O)COC(=O)c1cccnc1Sc1ccccc1 | -7.2 | -4.2
Cc1cccc(C)c1NC(=O)c1ccccc1N(Cc1ccccc1)S(C)(=O)=O | -3.8 | -4.9
O=C(NC(c1ccc(Cl)cc1)c1ccsc1)C1CCN(CCOc2ccccc2)CC1 (stereo not given) | 4.2 | 2.4
COc1ccc(/C=C2/CCC(=C(SC)SC)C2=O)cc1 | 5.6 | 3.4
COc1ccc(C(=O)NC2CCCN(CC3CCCCC3)C2)c(OC)n1 (stereo not given) | 16.6 | 10.3
CN(CCC=C1c2ccccc2CCc2ccccc21)S(=O)(=O)c1ccccc1Cl | -4.4 | -13.3
Cc1nccn1CCCn1ccnc1-c1cc(F)cc(Cl)c1 | -0.7 | -3.1
Going on with the list:
SMILES | NPYLR7 agonist | NPYLR7 agonist max-min
Cc1nc(C(F)(F)F)ccc1C(=O)N1CCC1(C)C(=O)NCc1cccnc1 (stereo not given) | 3.3 | 0.7
COc1cccc(C(=O)NC(C(=O)NCc2ccco2)C2CCN(C(=O)c3cccs3)CC2)c1 (stereo not given) | -5.5 | -3.6
CC(C)(C)NC(=O)CN(c1ccccc1)S(=O)(=O)c1ccccc1F | -0.6 | -2.3
CCOc1ccc(C(O)=C2C(=O)C(=O)N(CCCN(C)C)C2c2cc(OC)c(OC)c(OC)c2)cc1 (stereo not given) | 0.2 | -5.1
CCOC(=O)CNC(=O)N1CCN(c2cc(Oc3ccc(F)c(Cl)c3)ncn2)CC1 | -8.5 | 5.7
O=C(O)CCCC(=O)Nc1nccs1 | 3.5 | 5.2
CCOC(=O)c1ccccc1NC(=O)Cn1c(-n2nc(C)cc2C)nc(C)c(CC)c1=O | 2.1 | -1.9
COc1ccc(CC(=O)N(Cc2ccc(F)cc2)Cc2nc3cc(Cl)ccc3o2)cc1OC | 6.8 | 1.5
COc1ccccc1CNC(=O)CCc1ccc(-c2ccc(F)cc2)n1-c1ccc(NC(C)=O)cc1 | -1.8 | 4.3
CCN1C(=O)NC(c2cc(Br)ccc2OC)C(C(=O)Nc2cc(C)on2)=C1C (stereo not given) | 0.8 | -1.7
O=C(NCCc1cccnc1)NC1CCSc2ccc(F)cc21 (stereo not given) | 5.2 | 2.6
CN(CCc1cnn(C)c1)Cc1nc(Cc2ccccc2)no1 | 11.6 | -1.9
C=C(CC=NNc1ccc([N+](=O)[O-])cc1)CCC=C(C)C | 12.9 | 5.6
O=C(Nc1ccc(NS(=O)(=O)c2ccc3nc[nH]c(=O)c3c2)cc1)C1CC1 | -1.0 | -3.8
COc1cc(OC)cc(C(=O)Nc2ccc(C(=O)N(C)C)cc2)c1 | 7.8 | 6.1
CC(C)Oc1ccc(CN2CCC2(C)C(=O)Nc2ccc(Cl)c(Cl)c2)cc1 (stereo not given) | 8.0 | 4.0
Cc1cnc(CNC(=O)CCSc2ccc3c(c2)OCCO3)cn1 | -1.6 | 12.1
COC(=O)Cn1c(=O)c2c(nc3n(-c4ccccc4F)c(C)cn23)n(C)c1=O | -3.5 | -5.3
CC(C)(C)c1ccc(COc2coc(CN3CCN(S(=O)(=O)c4c(F)c(Br)cc(F)c4Br)CC3)cc2=O)cc1 | 4.6 | 2.0
CCOC(=O)c1[nH]c(C)c(C(=O)CN(C2CC2)S(=O)(=O)c2ccc(Cl)c([N+](=O)[O-])c2)c1C | 21.7 | 25.2
C#CCOCC(O)CN(Cc1ccc(OC)c(OC)c1)CC1CCCO1 (stereo not given) | 23.5 | 28.9
COc1cc(N2CCN(S(=O)(=O)c3ccc4nc(C)sc4c3)CC2)nc(C)n1 | 2.5 | 1.5
CC1=NOC(C(=O)N2CCC(c3nn(C)c(=O)n3-c3ccccc3)CC2)C1 (stereo not given) | 20.5 | 8.3
CCC(C)N(Cc1ccc(OS(C)(=O)=O)cc1)C(=O)c1ccc(OC)cc1OC (stereo not given) | -0.2 | 2.0
O=C1/C(=C/c2cccc([N+](=O)[O-])c2)NC(=S)N1c1ccccc1 | 12.0 | 16.5
Next entries:
SMILES | NPYLR7 agonist | NPYLR7 agonist max-min
CCN(CC)c1ccc(C=C2C(=O)N(C)C(=O)N(C)C2=O)cc1 | -10.0 | -17.2
CCOC(=O)c1ccc(NC(=O)c2sc(NC(=O)c3ccccc3)c(C(=O)OCC)c2C)cc1 | -2.4 | -6.5
COCCC(=O)N1CCC(Oc2ccc(C(=O)NC3Cc4ccccc4C3)cc2)CC1 | 8.1 | 6.2
Cc1ccc(C(C)Nc2cc(C)ccc2F)cc1 (stereo not given) | 4.0 | 0.6
Cc1ccc([N+](=O)[O-])cc1S(=O)(=O)Nc1c(F)cccc1F | 8.5 | -1.5
Cc1ccccc1C1CC(C)N(C(=O)CCCn2ccnc2)C1 (stereo not given) | -2.9 | -5.8
CN(C)S(=O)(=O)c1cccc(Cn2c(=O)c3cccnc3n2C)c1 | -6.9 | -6.2
O=C(NCCc1nnc2n1CCC2)c1ccc(CN2CCCCC2)cc1 | -1.4 | -0.1
CC(C)(CO)N(Cc1nc2ccsc2c(=O)[nH]1)Cc1nc2ccsc2c(=O)[nH]1 | 6.4 | 2.5
COc1ccccc1-n1c(SCc2ccc(C(=O)N3CCOCC3)cc2)nnc1-c1ccccc1Cl | -2.4 | 4.6
Cc1cc(NC(=O)c2cccc(CN3CCC(C(N)=O)CC3)c2)ccc1F | 4.2 | 1.8
Cc1nc(N2CCN(C)CC2)ncc1-c1cc(=O)[nH]c(N2CCC(C)CC2)n1 | -0.3 | 33.3
O=C(NCCc1ccncc1)C1CCCN(C2CCN(C(=O)C3CC3)CC2)C1 (stereo not given) | -3.3 | -2.2
COc1ccc(CC(=O)Nc2cc(=O)n(C)c(=O)n2C)cc1OC | 8.2 | 10.4
CN(c1ccccc1)N1CC(C(=O)Nc2ccc(Cl)cc2)CC1=O (stereo not given) | -6.5 | -6.9
COC(=O)CN(CC#N)C(=O)C(C)S(=O)(=O)c1ccc(F)cc1 (stereo not given) | 5.7 | 12.1
Cc1cc(CN2CCN(CC(=O)Nc3c(C)cccc3C)CC2)on1 | 7.4 | 7.0
CCc1nn(C(C)C(=O)NCCN(CC)CC)c(=O)c2cc3occc3n12 (stereo not given) | 6.0 | 4.0
Cc1c(-n2[nH]nnc2=S)c(=O)n(-c2ccccc2)n1C | 2.4 | 10.0
CN(Cc1nccn1C(F)F)C(=O)/C=C/c1cccc(F)c1 | 1.3 | -0.3
COc1cc2c(cc1OC)CN(C1CCCN(C3CCSCC3)C1)CC2 (stereo not given) | 0.2&6.4 | 2.4&4.0
COc1ccc(OCCSc2nc3ccccc3n2CC(N)=O)cc1 | -6.9 | -14.0
O=C(CSc1nnc(-c2ccco2)o1)NC1CCCCC1 | 9.2 | 6.3
O=C(Nc1ccccc1)c1cc2nc(C(F)F)cc(C(F)F)n2n1 | -0.4 | 2.8
Cc1nnc(SCc2nc(C(=O)NC(C)CCc3ccccc3)cs2)n1-c1cccc(Cl)c1 (stereo not given) | 4.0 | -0.6
CCOC(=O)N(C)c1c(CC)nc2c(OCC(=O)c3ccc(F)cc3)cccn12 | 8.8 | -3.0
Cc1cc(C)c(NCC(=O)N(C2CCCCC2)C2CCS(=O)(=O)C2)c(Cl)c1 (stereo not given) | 1.2 | 1.7
COCC(=O)NC1CCN(c2ccccc2C(=O)NCc2cccnc2)CC1 | 23.4 | 26.4
CCN(CC)CCN(C(=O)c1ccc(Cl)cc1F)C1CCS(=O)(=O)C1 (stereo not given) | 0.9 | -0.6

13 consecutive records from above:
SMILES | NPYLR7 agonist | NPYLR7 agonist max-min
CCN(CC)c1ccc(C=C2C(=O)N(C)C(=O)N(C)C2=O)cc1 | -10.0 | -17.2
CCOC(=O)c1ccc(NC(=O)c2sc(NC(=O)c3ccccc3)c(C(=O)OCC)c2C)cc1 | -2.4 | -6.5
COCCC(=O)N1CCC(Oc2ccc(C(=O)NC3Cc4ccccc4C3)cc2)CC1 | 8.1 | 6.2
Cc1ccc(C(C)Nc2cc(C)ccc2F)cc1 (stereo not given) | 4.0 | 0.6
Cc1ccc([N+](=O)[O-])cc1S(=O)(=O)Nc1c(F)cccc1F | 8.5 | -1.5
Cc1ccccc1C1CC(C)N(C(=O)CCCn2ccnc2)C1 (stereo not given) | -2.9 | -5.8
CN(C)S(=O)(=O)c1cccc(Cn2c(=O)c3cccnc3n2C)c1 | -6.9 | -6.2
O=C(NCCc1nnc2n1CCC2)c1ccc(CN2CCCCC2)cc1 | -1.4 | -0.1
CC(C)(CO)N(Cc1nc2ccsc2c(=O)[nH]1)Cc1nc2ccsc2c(=O)[nH]1 | 6.4 | 2.5
COc1ccccc1-n1c(SCc2ccc(C(=O)N3CCOCC3)cc2)nnc1-c1ccccc1Cl | -2.4 | 4.6
Cc1cc(NC(=O)c2cccc(CN3CCC(C(N)=O)CC3)c2)ccc1F | 4.2 | 1.8
Cc1nc(N2CCN(C)CC2)ncc1-c1cc(=O)[nH]c(N2CCC(C)CC2)n1 | -0.3 | 33.3
O=C(NCCc1ccncc1)C1CCCN(C2CCN(C(=O)C3CC3)CC2)C1 (stereo not given) | -3.3 | -2.2
